Screens: PubChem, ICCB-Longwood Screening Facility, Harvard Medical School
MgrA-DNA mod – S. aureus MgrA-DNA binding modulation. actives 0.13% (n = 84,000). fluorescence polarization. inhibition, %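 (about 10 µg/mL by stock and volumes)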;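 active = above 50% in either of two replicates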;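 note: 0% = protein plus DNA without compound and 100% = DNA alone without protein; higher means less MgrA bound to DNA so lower polarization; one replicate is shown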
Sa helicase inh – blocks Staphylococcus aureus DNA helicase; AID 485395; actives 0.05% (n = 120,000); purified S. aureus helicase, fluorescence unwinding assay; about half of the hits fall short of the stated cut; inhibition, %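 (tested at about 80 µM)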;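 active = both duplicates at 50% or more, or one of them with a favoured structure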;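 note: 0% = mean of negative control wells and 100% = mean of positive control wells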
Active calls of the source: *; x = not tested or not shown.

structure,MgrA-DNA mod,Sa helicase inh
CCOC(=O)c1cnc(C(F)(F)F)nc1NNC(=O)c1ccccc1,x,-19.0
CCCn1cc(SCC(=O)Nc2sc3c(c2C(=O)OCC)CCC3)c2ccccc21,4.4,13.0
O=C(C1Cc2ccccc2CN1S(=O)(=O)c1ccc2c(c1)OCCO2)N1CCCC1 (stereo not given),x,-3.0
Cc1cccc(NC(=O)Nc2cccc(C)c2)c1,1.1,x
N#C/C(=C\c1ccc(Cl)cc1Cl)c1nc(-c2cc3c(ccc4ccccc43)oc2=O)cs1,-1.4,x
CCn1c(CNc2ccc(C)cc2)nnc1SCc1ccccc1,2.9,1.0
NC(=O)c1c(NC(=O)CCOc2ccccc2)sc2c1CCCC2,x,-21.0
CC1CC(C)CN(C(=O)COc2ccccc2F)C1 (stereo not given),0.0,2.0
O=C(O)C(O)C(O)c1nc2ccccc2s1 (stereo not given),x,7.0
O=C(Nc1c(C(=O)c2ccccc2)oc2ccccc12)c1ccc(Cl)cc1,-1.0,11.0
Cc1ccc2nc(SCC(=O)N(c3ccccc3)C(C)C)[nH]c2c1,0.6,7.0
O=C(OCc1ccccc1)c1ccccc1C(=O)c1ccccc1,0.5,5.0
CC(C)(C)c1cn2cccc(OCc3ccc(Cl)c(Cl)c3)c2n1,0.5,x
CC1CCCCN1C(=O)C1CC(c2ccc(F)cc2)=NO1 (stereo not given),x,5.0
CCNC(=O)c1ccc2c(c1)sc1nc(-c3ccc(OC)cc3)cn12,1.8,-5.0
COc1ccc(OC)c(C2N(Cc3ccc(C)cc3)CCCN2Cc2ccc(F)cc2)c1 (stereo not given),0.8,-8.0
COCc1[nH]nc(N)c1-c1ccccc1,-2.2,4.0
CCN(C(=O)CSc1nnc2scc(-c3cccc(OC)c3)n12)c1ccccc1,-3.0,2.0
N#CCCn1nnc(CCN2C(=O)c3ccccc3C2=O)n1,x,-3.0
Nc1cc(C(=O)OCC(=O)c2csc(N3CCCCC3)n2)ccc1Cl,x,-6.0
Cc1cccc(C)c1N=C1NC(=O)CS1,-0.4,3.0
CC1(C)CC(=O)C(CC(=O)N2CCCCCC2)=C(O)C1,x,-11.0
CCOC(=O)c1cnc2n(c1=O)CCS2,1.5,x
Cc1cc(C(=O)C(C)OC(=O)c2ccc(S(=O)(=O)NCc3ccco3)cc2)c(C)n1-c1ccc(Cl)cc1 (stereo not given),x,-10.0
CCOC(=O)Cn1c(=O)c2ccsc2c2c(C#N)c(SC)sc21,1.0,x
CC(C)c1ccc(C2C(C#N)=C(N)C(C#N)(C#N)C3=CCN(C)CC32)cc1 (stereo not given),8.7,-6.0
CC1CCCN(Cc2cc(Cl)cc(Cl)c2O)C1 (stereo not given),0.1,6.0
Cc1ccc(C(=O)/C=C/Nc2ccc(F)c(Cl)c2)o1,-5.5,9.0
C=CCc1c(C)[nH]c2c(OC)cccc2c1=S,4.9,-1.0
Clc1ccc(C2=NNC(=NCc3ccc4c(c3)OCO4)SC2)cc1,x,2.0

Continued:
structure,MgrA-DNA mod,Sa helicase inh
CC(Sc1nncn1-c1ccccc1)C(=O)Nc1ccccc1 (stereo not given),x,-6.0
CCOc1cc2c(cc1/C=C1/NC(=O)N(Cc3ccccc3)C1=O)OCO2,2.0,-4.0
CC(Oc1ccc(Cl)cc1Cl)C(=O)NNc1nc(Cl)nc(N(C)C)n1 (stereo not given),1.2,8.0
O=S(=O)(Cc1ccccc1)C1CCCCC1O (stereo not given),-1.8,x
O=C(C1CCCCC1)N1CCN(Cc2ccccc2)CC1,0.9,x
CN(C)CC(C)(C)CNc1ccc(S(=O)(=O)N2CCCC2)cn1,x,-9.0
CCOc1cc(C2Nc3ccccc3NC3=C2C(=O)CC(c2ccc(OC)c(OC)c2)C3)cc(Br)c1O (stereo not given),-1.6,x
CCc1ccc(NC(=O)N(Cc2ccco2)C2CCN(C(C)=O)CC2)cc1,x,24.0
CN(C)C(=O)c1cccn1-c1ncc(C(F)(F)F)cc1Cl,-0.3,x
O=C(CNCCO)N1N=C(c2cccs2)CC1c1cccs1 (stereo not given),3.8,-4.0
C=CCN=C1NN(c2ccc3c(c2)OCCO3)C(C(=O)Nc2ccccc2)=C(C)S1,-4.0,14.0
Cc1ccc(N(C(=O)C(F)(F)F)C(C(=O)NC2CCCC2)c2cccs2)cc1F (stereo not given),-0.8,2.0
O=C(CN1C(=O)CS/C1=C\c1nc2ccccc2s1)c1cc2ccccc2o1,x,-29.0
COc1ccc(N2C(=O)c3c(c4ccccc4n3C)C2c2ccc(NC(C)=O)cc2)cc1 (stereo not given),x,24.0
CCN=C1S/C(=C\c2ccc(-c3cccc(C(=O)O)c3)o2)C(=O)N1CC,21.0,7.0
Cc1cc(NC(=O)NN2CCOCC2)nn1-c1c(Cl)cccc1Cl,-1.2,x
CC1=C(C#N)C(c2ccccc2C(F)(F)F)C2=C(CCCC2=O)N1 (stereo not given),x,-9.0
COc1ccc2[nH]c3nc(=S)[nH]nc3c2c1,1.5,10.0
COC(=O)c1sccc1-c1ccc(/C(C)=N/NC(N)=O)o1,x,14.0
Cc1nc(COC(=O)c2cccc(S(=O)(=O)N3CCc4ccccc43)c2)cs1,x,17.0
O=C(NC(=S)NNc1nc2ccccc2s1)c1ccco1,x,10.0
Cc1ccc(N(CC#N)C(=O)Nc2ccc(Cl)cc2)cc1,x,20.0
CCc1cccc2cc(CN)c(=O)[nH]c12,15.7,8.0
CC(C)(C)n1cnc2cc(NCc3ccccc3O)ccc21,x,3.0
CCCc1nc2c([nH]1)C(c1cccc(O)c1)C(C#N)=C(N)O2 (stereo not given),-0.5,0.0
O=C(NC(=S)NNc1ncccc1-n1cccc1)c1ccccc1,x,28.0
CSc1sc(SC)c(C[n+]2ccccc2)c1C[n+]1ccccc1,-2.0,1.0
CC[N+]1(CC)Cc2cc3ccccc3cc2C1,2.0,14.0
CN(C)c1ccc(C=Nc2ccc3[nH]c(=O)[nH]c3c2)cc1,-1.4,3.0
N#CCOC(=O)c1ccccc1C(=O)c1cccs1,x,-8.0

Additional compounds follow.
structure,MgrA-DNA mod,Sa helicase inh
COC(=O)c1cn(-c2ccccc2)nc1-c1ccccc1,0.9,4.0
CC1(C)CC(NC(=O)c2ccc3c(c2)OCO3)CC(C)(C)N1,-2.0,8.0
O=C(Oc1c(-c2ccco2)oc2ccccc2c1=O)c1cccs1,-0.4,-7.0
Cc1ccc(C(=O)Nc2nc(-c3ccc(C#N)cc3)cs2)cc1,x,11.0
CCN(CC)c1cc(-c2cccs2)nc(SCC(=O)c2cccs2)c1C#N,7.5,0.0
COc1ccc(C2OCCCO2)c(Cl)c1OC,-1.4,x
Nc1cc(N2CCCCC2)nc(N)[n+]1OS(=O)(=O)[O-],1.9,x
Cc1ccccc1C(C(=O)Nc1ccc(F)cc1)N(Cc1ccco1)C(=O)Cn1nnc2ccccc21 (stereo not given),3.5,5.0
CCOC(=O)Cc1csc(NC(=O)COc2c(C)cccc2C)n1,x,9.0
Cc1ccc(Oc2ccc3c(c2)C(=O)N(CC2CCCO2)C3=O)cc1 (stereo not given),1.5,25.0
O=C1/C(=C/c2cccc(Br)c2)SC(=S)N1CC(=O)N1CCCc2ccccc21,0.8,2.0
O=S(=O)(c1cccc2nsnc12)N1CCOCC1,1.6,-1.0
COc1cc(OC)cc(C(=O)N[C@H](C(=O)NCc2ccco2)C(C)C)c1,x,-6.0
NS(=O)(=O)c1ccc(CC(=O)O)cc1,-5.0,-5.0
COc1cc(CN2CC(C)CC(C)C2)cc(I)c1O (stereo not given),0.3,-5.0
CN(C)c1ccc(C(CNC(=O)NC2CCCCC2)N2CCc3ccccc32)cc1 (stereo not given),x,15.0
CC1CN(S(=O)(=O)c2sc(Cl)cc2Br)CC(C)O1 (stereo not given),-0.6,x
CC(OC(=O)C1CCN(C(=O)Nc2ccccc2)CC1)C(=O)Nc1ncc(Cl)cc1Cl (stereo not given),x,16.0
CN(C)/C=C/C=C1\CCCC1=O,x,27.0
O=c1c2c3c(sc2n2cnnc2n1CCc1ccccc1)CCCC3,2.6,10.0
COc1ccc2cc3c(NC(=O)COc4cccc(C)c4)n[nH]c3nc2c1,x,9.0
COc1cccc(NC(=O)Cc2noc3ccc(C)cc23)c1,x,1.0
Cc1c(Cl)cccc1NC(=O)NCC(C)C,0.3,-9.0
C=CCN(CC=C)C(=S)NC(=O)c1ccccc1,-1.5,x
CC(C)(C)c1ccc(OCC(=O)N2CCN(c3ccc(O)cc3)CC2)cc1,-2.1,-18.0
CC1(C)CC(=O)C2=C(C1)N(CC(=O)O)C1=C(C(=O)CC(C)(C)C1)C2c1ccccc1,-0.9,6.0
CCC(=O)Nc1c2c(nn1-c1ccc(C)cc1C)CSC2,x,2.0
O=c1ccc(-c2ccc(S(=O)(=O)Nc3ccccc3)o2)n[nH]1,x,2.0
CC(=O)Nc1nnc(C23CC4CC(CC(C4)C2)C3)s1,x,11.0
Clc1ccc(OCCOc2ccc(Cl)cc2)cc1,0.5,x

Complete entries from above. Screens in order: MgrA-DNA mod, Sa helicase inh
`COc1ccc(C2OCCCO2)c(Cl)c1OC` is listed with -1.4, x
`CN(C)c1ccc(C(CNC(=O)NC2CCCCC2)N2CCc3ccccc32)cc1` (stereo not given) is listed with x, 15.0
`COc1ccc2cc3c(NC(=O)COc4cccc(C)c4)n[nH]c3nc2c1` is listed with x, 9.0
`O=S(=O)(c1cccc2nsnc12)N1CCOCC1` is listed with 1.6, -1.0
`CC(=O)Nc1nnc(C23CC4CC(CC(C4)C2)C3)s1` is listed with x, 11.0

(cont.)
structure,MgrA-DNA mod,Sa helicase inh
O=c1cc(CO)oc(CN2CCc3ccccc3C2)c1O,x,12.0
O=C(CS(=O)(=O)c1c[nH]c2ccccc12)N1CCCCC1,x,20.0
CC(C)CNc1ncnc2c1sc1nc3c(cc12)COC(C)(C)C3,x,-19.0
COc1ccc(/C=C/C(=O)NCCN=C2NS(=O)(=O)c3ccccc32)cc1,0.8,5.0
CCc1ccccc1NC(=O)CC(NCC1CCCO1)C(=O)O (stereo not given),x,-15.0
CCc1nc2c(cnn2-c2ccccc2)c2nncn12,-0.6,-17.0
CSc1sc(C(C)=O)c(N)c1C#N,-0.9,x
Cn1c(=O)c2c(nc(S(C)(=O)=O)n2C)n(C)c1=O,-0.6,2.0
CN(C)S(=O)(=O)c1ccc(C(=O)N=c2sc3cc(S(C)(=O)=O)ccc3n2C)cc1,0.4,4.0
O=C(Cn1c(-c2cscn2)nc2ccccc21)OCCOc1ccc(Br)cc1,x,-11.0
C=CCN(CC=C)Cn1nc(-c2c[nH]c3ccccc23)oc1=S,x,-7.0
CCOC(=O)C(CC)n1cnc2c(nnn2Cc2ccc(C)cc2)c1=O (stereo not given),x,5.0
O=C(CSc1nccc(=O)[nH]1)NN(c1ccccc1)c1ccccc1,x,-8.0
O=C(CSc1ccccc1C(=O)O)Nc1cccc(C(F)(F)F)c1,x,3.0
O=C(O)CCSc1nc2ccccc2[nH]1,x,-34.0
OC(COc1cccc(C(F)(F)F)c1)CN1CCN(c2nc(-c3ccccc3)ns2)CC1 (stereo not given),-0.4,x
O=C(CC(c1ccc(F)cc1)N1Cc2ccccc2C1=O)NCc1ccco1 (stereo not given),x,-2.0
Cc1c(NC(=O)CCN2C(=O)/C(=C\c3ccc(F)cc3)SC2=S)c(=O)n(-c2ccccc2)n1C,2.0,x
Cc1ccc(C2C(Cc3ccccc3)N3C=Cc4ccccc4C3C2(C#N)C(N)=O)c(C)c1 (stereo not given),-0.6,2.0
c1ccc2c(CN3CCSCC3)c[nH]c2c1,-0.4,-12.0
CC(C)CCN1C(=O)c2ccccc2C1C(=O)NCc1cccnc1 (stereo not given),1.2,-11.0
COc1ccc(CNC(=O)c2cnc(Nc3ccccc3OC)c3ccccc23)cc1,-1.6,6.0
COC(=O)C1=C(C)N(c2ccccc2)/C(=C/c2cccs2)C1=O,-1.8,11.0
CCCN1C(=O)c2ccccc2NC1c1cccc(O)c1O (stereo not given),x,4.0
O=C(Nc1ccccc1C(=O)N1CCN(c2ccc(F)cc2)CC1)C1=CSCCO1,x,8.0
COc1ccc(/C=C/C(=O)NNc2nc(C)cc(=O)[nH]2)cc1,x,-5.0
COc1ccc(C2=NCC(CSc3nc4cc(Cl)ccc4o3)S2)cc1 (stereo not given),x,-8.0
COC(=O)c1ccccc1NC(=O)c1cc(-c2ccccc2O)on1,x,8.0
Cc1noc(C)c1NC(=O)Nc1cccc(-n2cccc2)c1,x,-8.0

Structures from the list above with a tert-butyl group:
structure,MgrA-DNA mod,Sa helicase inh
CC(C)(C)c1cn2cccc(OCc3ccc(Cl)c(Cl)c3)c2n1,0.5,x
CC(C)(C)n1cnc2cc(NCc3ccccc3O)ccc21,x,3.0
CC(C)(C)c1ccc(OCC(=O)N2CCN(c3ccc(O)cc3)CC2)cc1,-2.1,-18.0

Only part of the results is shown; rates above refer to the full screens.
